UCH37 DUB inh = human UCH37 deubiquitinating enzyme inhibition. inhibition, % (concentration not given with the values). AID 588478. Q9Y5K5. purified proteasome/UCH37, Ub-AMC cleavage fluorescence. 330,000 tested, 0.33% active;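 active = mean of two replicates above 20%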;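 note: 0% = compound-free wells with enzyme and 100% = wells lacking proteasome; stock transfer was 100 nL into about 20 µL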
Target sequence (Q9Y5K5 whole entry, looked up): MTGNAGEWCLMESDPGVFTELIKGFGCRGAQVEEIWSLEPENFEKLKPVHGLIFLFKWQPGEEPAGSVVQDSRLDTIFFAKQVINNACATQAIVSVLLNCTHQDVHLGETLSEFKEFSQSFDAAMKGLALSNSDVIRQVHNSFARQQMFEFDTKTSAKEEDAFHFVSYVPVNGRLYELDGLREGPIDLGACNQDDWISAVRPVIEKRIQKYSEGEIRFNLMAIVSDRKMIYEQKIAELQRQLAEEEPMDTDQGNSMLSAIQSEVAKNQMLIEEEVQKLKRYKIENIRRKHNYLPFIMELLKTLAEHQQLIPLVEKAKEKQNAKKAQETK
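Material: Human UCH37 enzyme supplied as purified proteasome complex | Schedule: 30 min preincubation with enzyme, 25 min cleavage at room temperature | Detection: AMC fluorescence 355/460 nm | Measure: % inhibition of Ub-AMC cleavage fluorescence | Controls: Wells without proteasome as full block, compound-free enzyme plus substrate as uninhibited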
ALR H2O2 inh = blocks human ALR sulfhydryl oxidase activity. purified ALR, DTT oxidation, H2O2 HRP-luminol luminescence. inhibition, % (no concentration beside the values). 290,000 tested, 3.8% active. AID 485317;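 active = mean and each replicate at 75% or more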;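 note: stock transfer was 7.5 nL into about 7.5 µL; 0% = neutral wells and 100% = wells with inactivated enzyme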
rRNA inh HTS = selective bacterial rRNA inhibition in E. coli; E. coli WT GFP vs humanized-ribosome RFP mutants, fluorescence, 24 h; active compounds read low; DMSO median 0, no signal -100; AID 720706; GFP signal change (wild-type ribosome), % (concentration not given with the values); 350,000 tested, 1.6% active;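 active = significant combined selectivity score with lowered wild-type GFP, culture density cut under 30%, mutant RFP and density less affected; inactive = any of these conditions unmet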; note: one replicate is shown; some compounds called inactive have numbers as strong as hits
B2AR ag = agonists of human beta-2 adrenergic receptor inducing internalization. P07550. Am2.2-beta2AR cells, FAP receptor internalization, flow cytometry; reference of the scale not given here. response, % (concentration not given with the values). 340,000 tested, 0.43% active. AID 504454;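 active = response above a set limit, near 3 SD of response in nonfluorescent compounds, cut at about 42% in these data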;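 note: stock transfer was 100 nL into about 11 µL; a reference agonist was the positive control; negative values mostly stem from fluorescent compounds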
FGF22 binding = binders of recombinant human FGF22 by thermal shift; calls only at 9.99 µM; Q9HCT0; 340,000 tested, 1.5% active; SYPRO orange fluorescence; percent of sucrose octasulfate shift, DMSO zero;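 active = melting point raised past a set limit in the mean and every replicate; three in four hits are not shown here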
Target sequence (Q9HCT0 whole entry, looked up): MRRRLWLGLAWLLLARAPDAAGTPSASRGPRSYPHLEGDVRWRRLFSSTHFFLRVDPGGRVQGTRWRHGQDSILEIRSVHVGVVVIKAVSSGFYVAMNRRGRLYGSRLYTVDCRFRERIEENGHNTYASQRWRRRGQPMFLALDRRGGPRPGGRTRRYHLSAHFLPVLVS
E coli growth = E. coli growth inhibition. 330,000 tested, 0.21% active. OD600 absorbance (no concentration beside the values). Escherichia coli growth, OD600, 23 h; active compounds read low;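 active = OD600 absorbance below the run mean of sample wells minus 3.6 SD, in any replicate, cut at about 0.56 in these data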;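 note: stock transfer was 300 nL into about 60 µL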
HNF4A DNA FP = change in binding of human HNF4 alpha to DNA; HNF4a-FITC DNA binding, fluorescence polarization, 1 h; activity change, % at 10 µM; 360,000 tested, 0.3% active; AID 1224865; in the data active = activity change above about 30%, passing the limit was not always enough;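 note: controls were the assay level and a saturating level of protein; the project sought stronger binding though the title names inhibitors; some compounds called inactive have numbers as strong as hits; positive values seem to mean higher polarization but the record does not say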
Target sequence (P41235 whole entry, looked up): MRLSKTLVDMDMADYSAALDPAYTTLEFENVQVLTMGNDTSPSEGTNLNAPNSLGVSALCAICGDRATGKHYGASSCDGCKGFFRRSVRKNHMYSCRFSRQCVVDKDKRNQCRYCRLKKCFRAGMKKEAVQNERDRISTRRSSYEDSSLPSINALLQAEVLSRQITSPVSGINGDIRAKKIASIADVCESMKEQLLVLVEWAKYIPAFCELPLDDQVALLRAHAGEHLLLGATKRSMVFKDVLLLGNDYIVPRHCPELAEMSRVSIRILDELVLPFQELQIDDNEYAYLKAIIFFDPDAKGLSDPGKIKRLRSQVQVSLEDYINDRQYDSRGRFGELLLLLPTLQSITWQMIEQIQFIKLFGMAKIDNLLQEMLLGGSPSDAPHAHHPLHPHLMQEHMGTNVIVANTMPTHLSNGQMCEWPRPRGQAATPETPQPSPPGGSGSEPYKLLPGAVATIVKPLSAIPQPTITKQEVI
rRNA inh HTS OD600 = recorded beside rRNA inh HTS, whose call it bears; OD600 change, %; measured here: OD600 growth;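 optical density of the mix in the first replicate; 0 = DMSO median and -100 = no signal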
rRNA inh HTS RFP = recorded beside rRNA inh HTS, whose call it bears; RFP signal change, %; measured here: RFP humanized mutant strains;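 first replicate; 0 = DMSO median and -100 = no signal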
* = called active by the depositor; i = inactive; . = not tested or not shown; & = joins results of further samples. A portion of the library (hit frequency here may not be typical).

SMILES	UCH37 DUB inh	ALR H2O2 inh	rRNA inh HTS	rRNA inh HTS OD600	rRNA inh HTS RFP	B2AR ag	FGF22 binding	E coli growth	HNF4A DNA FP
CCOC(=O)CSc1nc2cc(C(=O)NCC3CCCO3)ccc2c(=O)n1Cc1ccco1 (stereo unspecified)	1.0	-5	.	.	.	-4	.	0.66	-2.8
Cc1ccc(N(C)S(=O)(=O)c2cccc(C(=O)NNC(=O)c3ccncc3)c2)cc1	5.0	-1	-6	-20	-0.3	6	i	0.62	0.1
O=S(=O)(Nc1ccc(F)cc1)c1ccc(NS(=O)(=O)c2cccs2)cc1	6.4	0	-1	-13	-6.4	21	i	0.67	2.4
O=C(O)c1cc(-c2cccc([N+](=O)[O-])c2)n[nH]1	2.7	39	-2	1	-1.7	5	i	0.72	-3.3
COc1ccc(C(=O)Nc2ccc3nc(C)c(C)nc3c2)cc1	-63	-14	-5	-4	1.6	-1	i	0.65	-0.2
Cc1nc(/C(N)=N/OC(=O)Cc2ccccc2)no1	.	-2	4	6	-0.7	-3	i	.	-4.6
Cc1ccc([N+](=O)[O-])cc1NC(=O)/C=C/C(=O)O	1.7	1	11	12	-5.5	5	i	0.7	1.3
O=C(Nc1ccccc1Cl)Nc1ccnn1C1CCN(C(=O)c2cscn2)CC1	2.9	2	13	7	1.8	-10	i	0.66	2.9
CCCCCCCCN1[C@@H](CC(=O)OCC)c2ccc(C(F)(F)F)cc2S1(=O)=O	6.4	0	-7	-21	1.0	-12	i	.	-0.2
C=C(C)CSc1nnc(-c2cccc(Cl)c2)n1N	3.8	-2	.	.	.	-4	.	0.66	-0.2
Cc1ccc(C)c(N2CCN(C(=O)C3CCCN(S(=O)(=O)c4c(C)[nH]c(=O)[nH]c4=O)C3)CC2)c1 (stereo unspecified)	0.6	15	.	.	.	12	.	0.77	0.7
Cc1noc(NC(=O)c2ccc(Cl)cc2)c1Cl	4.9	-2	-4	-23	0.4	5	i	0.65	-2.4
COC(=O)[C@@]12C[C@@H](CC(=O)NCCCCc3ccccc3)C(=O)N(CCc3ccc(OC)c(OC)c3)C1=CCC(C)(C)C2	.	.	27	6	-0.4	.	i	.	-0.5
COc1ccc2[nH]cc(CCNC(=S)NCCc3ccccc3)c2c1	0.8	9	-35*	-24*	-1.5*	12	.	0.72	-2.3
Cc1cc(C)nc(NC(=O)/C=C/c2ccc(Cl)cc2)n1	5.5	-12	-4	-3	-0.1	1	i	0.69	1.5
Cc1ccccc1NC(=O)Cc1nc(COC(=O)COc2ccccc2C(C)C)cs1	1.9	3	0	0	-1.8	7	i	0.68	1.1
CCCc1nnc(NC(=O)CN2CCN(C)CC2)s1	-1.9	2	.	.	.	3	.	0.73	-2.1
CCc1c(O)nc(SCc2ccccc2)n(C(C)CC)c1=O (stereo unspecified)	5.2	28	-18	-31	-16	0	i	0.72	3.4
CCOC(=O)c1ccc(-n2c(CN3CCC(C(N)=O)CC3)nc3ccc([N+](=O)[O-])cc3c2=O)cc1	4.3	-3	0	3	2.2	6	i	0.67	2.7
Cc1c(C(=O)N2CCOCC2)sc2ncnc(N3CCc4ccccc4C3)c12	3.0	.	.	.	.	5	.	0.69	0.3
CC(C)n1cnc2c(Nc3ccc(C(=O)O)cc3)nc(Cl)nc21	3.9	24	-11	-18	-26	-4	i	0.61	-0.1
CCc1nc2ccc(C(=O)Nc3ccc(NC(C)=O)cc3)cc2nc1CC	5.3	-46	21	11	-0.3	-1	i	0.7	-0.9
CCOC(=O)C1=C(C)NC(C)=C(C(=O)OCC)C1C(=O)OCC(=O)N1c2ccccc2CC1C (stereo unspecified)	-15&-28	-3	-13&-14	-26&-21	7.5&-3.7	-4&6	i	0.69&0.73	2.1&-0.9
CC(C)(C)CC(=O)Nc1ccc(C(N)=O)cc1	1.8	-3	.	.	.	18	.	0.68	3.1
Cc1nn(Cc2ccccc2)c(Cl)c1/C=C/C(=O)OCC(=O)NC(C)C(C)C (stereo unspecified)	3.3	-1	-2	3	-1.1	1	i	0.69	-2.1
COc1ccc(OCC(O)CN2C(=O)c3ccccc3C2=O)cc1 (stereo unspecified)	3.7	-15	11	13	1.4	3	i	0.68	-0.7
CCOc1cc(C(=O)N2CCCC2)cc(OCC)c1OCC	2.1	0	.	.	.	0	.	0.73	1.6
COc1ccc(C2CC(c3ccccc3)=NN2C(=O)CN2CCN(Cc3ccccc3)CC2)cc1 (stereo unspecified)	0.9	.	-54	-71	-2.2	-9	.	0.71	3.5
CC12CCC(=O)N1C(C(=O)Nc1nc(-c3ccccc3)cs1)CS2 (stereo unspecified)	-0.8	-1	0	6	4.8	2	i	0.67	3.2
Cn1c(N)c(C(=O)COC(=O)CCC2CCCCC2)c(=O)n(C)c1=O	3.6	-1	-10	-7	1.6	2	i	0.7	1.4
O=C(CN1C(=O)C2CCCN2c2ncc(Cl)cc21)NCc1ccc2c(c1)OCO2 (stereo unspecified)	-0.5	.	.	.	.	-1	.	0.73	36
CC/C(=N\NC(=O)CNC(=O)/C=C/c1ccc(OC)cc1)c1ccccc1	.	7	14	4	0.2	0	i	.	0.3
CC(C)c1cc(C(=O)N2CCCC(CCC(=O)N3CCN(c4ccccn4)CC3)C2)no1 (stereo unspecified)	2.6	38	-10	-9	-4.2	-9	.	0.7	1.2
Cc1onc(-c2ccccc2)c1C(=O)N/N=C/c1ccc([N+](=O)[O-])s1	.	-15	.	.	.	10	.	.	1.5
COc1ccc(Nc2nc3c(C)cccc3cc2C#N)c(OC)c1	1.3	-9	.	.	.	-4	.	0.7	-3.5
COc1ccc(OC)c(CNc2ncc(-c3cccc([N+](=O)[O-])c3)n2C)c1	7.3	98*	4	-4	1.7	-1	i	0.67	0.5
Fc1ccc(-n2cc(CNCCc3cccnc3)c(-c3ccccc3Cl)n2)cc1	1.8	-4	-40*	17*	-4.3*	-6	i	0.67	-1.2
CSc1nc(=O)n(CCC#N)nc1SC	.	.	9	10	0.5	.	i	.	3.8
O=C(c1ccc(Cl)cc1)c1ccc(OCC(O)CN2CCOCC2)cc1 (stereo unspecified)	4.4	0	.	.	.	-3	.	0.7	2.3
Cc1ccc(C2C(C#N)=C(N)Oc3c2c(=O)n(C)c(=O)n3C)cc1 (stereo unspecified)	1.0	28	.	.	.	1	.	0.71	0.7
O=C(NC1CCCc2c1cnn2-c1ccccc1F)c1ccncc1 (stereo unspecified)	.	.	1	-3	1.2	.	i	.	-1.0
Cc1ccc(C(C(=O)NC2CCCC2)N2CCCC(C)C2)cc1 (stereo unspecified)	4.3	-7	4	6	5.3	12	i	0.72	-3.1
Cc1csc2c(N3CCN(C(=S)Nc4ccc(F)cc4F)CC3)ncnc12	4.4	4	-26*	-15*	-2.9*	2	i	0.61	-2.9
C=CCn1c(SCC(=O)Nc2c(C)cccc2C)nnc1-c1cnccn1	3.2	-2	.	.	.	10	.	0.68	-0.9
Cc1ccc2nc(-c3ccc(NC(=O)CN4C(=O)c5ccccc5C4=O)cc3)sc2c1	-29	.	.	.	.	2	.	0.71	1.1
CCOC(=O)c1cc(NC(=O)NC2CCCCC2)c(C)nc1C	1.3	-13	0	3	-1.3	-4	i	0.65	2.5
O=C(CCc1nnc(CCCc2ccccc2)o1)NC(C1CC1)C1CC1	2.5	.	.	.	.	-1	.	0.68	-1.7
O=C(Cn1cnc2c(nnn2Cc2ccc(Cl)cc2)c1=O)N1CCCc2ccccc21	0.8	-4	15	3	-0.8	-5	i	0.72	-5.6
COc1cc(C(=O)NCC(=O)OCC(=O)Nc2nnc(-c3ccccc3)o2)cc(OC)c1OC	4.2	40	16	9	2.9	-5	i	0.66	-0.9
CCc1cc(/C(Cc2ccc3ccccc3n2)=N\O)c(O)cc1O	.	22	.	.	.	-3	.	.	-0.1
Cc1ccnc(N/N=C/c2ccccc2)n1	.	3	.	.	.	1	.	.	1.5
CC(=O)N1[C@H](Cc2ccccc2)C=C[C@]1(C)C(=O)NCc1ccc(C)o1	1.9	-6	.	.	.	-2	.	.	-2.2
CCOc1ccc(C(=O)CCN2CCCCCC2)cc1	1.5	36	.	.	.	2	.	0.65	0.1
CCCCc1cc(=O)oc2cc(OS(C)(=O)=O)ccc12	-38	-6	.	.	.	-5	.	0.66	-1.5
COc1cc(-c2cc(-c3ccc(N)cc3)[nH]c(=O)c2C#N)cc(OC)c1OC	-4.6	-6	6	10	3.9	-28	i	0.73	55*
O=C(Nc1nnc(C(F)(F)F)s1)C1COc2ccccc2O1 (stereo unspecified)	0.0	3	.	.	.	2	.	0.67	-0.4
CC(C)(C)N=Cc1cc(-c2ccccc2)sc1O	1.0	.	.	.	.	4	.	0.74	-2.0
O=C(O)C1C2C=CC(C2)C1C(=O)NCCCc1ccccc1 (stereo unspecified)	0.6	.	8	0	-5.0	-3	i	0.71	2.6
CCn1c(SCC(=O)N/N=C/c2ccc(C)o2)nnc1-c1ccc(C(C)(C)C)cc1	.	-1	.	.	.	13	.	.	-4.2
Cc1c(Cl)cccc1NC(=O)Nn1cnnc1	1.0	-13	15	5	-0.7	6	i	0.69	0.2

Molecules shown so far that have a nitro group on carbon, in the order listed:
SMILES	UCH37 DUB inh	ALR H2O2 inh	rRNA inh HTS	rRNA inh HTS OD600	rRNA inh HTS RFP	B2AR ag	FGF22 binding	E coli growth	HNF4A DNA FP
O=C(O)c1cc(-c2cccc([N+](=O)[O-])c2)n[nH]1	2.7	39	-2	1	-1.7	5	i	0.72	-3.3
Cc1ccc([N+](=O)[O-])cc1NC(=O)/C=C/C(=O)O	1.7	1	11	12	-5.5	5	i	0.7	1.3
CCOC(=O)c1ccc(-n2c(CN3CCC(C(N)=O)CC3)nc3ccc([N+](=O)[O-])cc3c2=O)cc1	4.3	-3	0	3	2.2	6	i	0.67	2.7
Cc1onc(-c2ccccc2)c1C(=O)N/N=C/c1ccc([N+](=O)[O-])s1	.	-15	.	.	.	10	.	.	1.5
COc1ccc(OC)c(CNc2ncc(-c3cccc([N+](=O)[O-])c3)n2C)c1	7.3	98*	4	-4	1.7	-1	i	0.67	0.5

Reprinted at random: three records from the list.
SMILES	UCH37 DUB inh	ALR H2O2 inh	rRNA inh HTS	rRNA inh HTS OD600	rRNA inh HTS RFP	B2AR ag	FGF22 binding	E coli growth	HNF4A DNA FP
O=C(O)C1C2C=CC(C2)C1C(=O)NCCCc1ccccc1 (stereo unspecified)	0.6	.	8	0	-5.0	-3	i	0.71	2.6
Cc1ccc(N(C)S(=O)(=O)c2cccc(C(=O)NNC(=O)c3ccncc3)c2)cc1	5.0	-1	-6	-20	-0.3	6	i	0.62	0.1
CC(C)n1cnc2c(Nc3ccc(C(=O)O)cc3)nc(Cl)nc21	3.9	24	-11	-18	-26	-4	i	0.61	-0.1

The listing continues.
SMILES	UCH37 DUB inh	ALR H2O2 inh	rRNA inh HTS	rRNA inh HTS OD600	rRNA inh HTS RFP	B2AR ag	FGF22 binding	E coli growth	HNF4A DNA FP
Cn1c(N)c(C(=O)COC(=O)/C=C/c2cccc(C(F)(F)F)c2)c(=O)n(C)c1=O	1.7	-1	-8	0	-1.0	22	i	0.62	2.8
COc1ccc(S(=O)(=O)Nc2ccc(N3CCOCC3)nc2)cc1	-0.8	29	8	0	3.5	2	.	0.69	-0.3
Cc1ccc(C(=O)NC(=S)Nc2ccc(-c3ccc(CO)o3)cc2)cc1	4.1	-2	0	18	20	-2	i	0.76	4.0
CC1CCCC/C1=N\Nc1ccc(S(N)(=O)=O)cc1[N+](=O)[O-] (stereo unspecified)	.	-8	.	.	.	-8	.	.	-1.9

Screens: PubChem BioAssay, several laboratories
